High-throughput results (PubChem BioAssay)
TSHR ag: activates the human thyroid stimulating hormone receptor; AID 926; Potency, µM (doses to about 57.1 µM), inactives show at the highest dose activation, usual class: activators; hit rate 0.48% among 73,000; HEK293-CNG-TSHR cells (CNG channel as cAMP sensor), membrane potential dye, cAMP; active = well fitted activation curve of enough size with the parental cells flat; inconclusive = any curve in the parental cells; inactive = parental cells flat and receptor cells flat or falling; note: potency is the fitted concentration of half-maximal effect; % of control where 0% means no effect; weak receptor curves with flat parental cells got no call and are not listed
Target sequence (P16473 whole entry, looked up): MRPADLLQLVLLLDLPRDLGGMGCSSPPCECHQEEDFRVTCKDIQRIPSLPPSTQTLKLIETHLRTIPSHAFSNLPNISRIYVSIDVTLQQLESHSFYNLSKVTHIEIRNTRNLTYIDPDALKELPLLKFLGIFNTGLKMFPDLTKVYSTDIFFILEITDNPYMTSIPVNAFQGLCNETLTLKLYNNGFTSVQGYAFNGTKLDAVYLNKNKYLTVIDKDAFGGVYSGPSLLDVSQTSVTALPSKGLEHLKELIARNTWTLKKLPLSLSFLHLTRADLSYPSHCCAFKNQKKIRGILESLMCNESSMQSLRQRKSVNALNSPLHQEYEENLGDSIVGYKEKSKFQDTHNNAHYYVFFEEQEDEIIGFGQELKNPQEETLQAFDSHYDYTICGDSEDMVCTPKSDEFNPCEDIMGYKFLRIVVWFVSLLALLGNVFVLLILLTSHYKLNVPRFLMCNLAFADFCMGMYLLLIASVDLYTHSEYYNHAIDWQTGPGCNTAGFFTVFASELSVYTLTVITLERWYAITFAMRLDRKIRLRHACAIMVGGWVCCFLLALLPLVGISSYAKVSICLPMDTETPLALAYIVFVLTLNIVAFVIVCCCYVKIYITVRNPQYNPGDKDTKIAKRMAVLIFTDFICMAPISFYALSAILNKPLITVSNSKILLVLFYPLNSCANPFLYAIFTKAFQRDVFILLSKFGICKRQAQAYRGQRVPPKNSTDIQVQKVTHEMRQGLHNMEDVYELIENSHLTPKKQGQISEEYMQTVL
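HEK 293 cells stably expressing TSHR and a cAMP-gated CNG channel; parental CNG-only cells as counterscreen. Cells preloaded 60 min with membrane potential dye plus 100 uM RO 20-1724, then compound 30 min; fluorescence read at 590 nm.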
AID923: qHTS Assay for Allosteric/Competitive Inhibitors of Caspase-1: Spectroscopic Profiling in AFC Spectral Region | compound fluorescence, AFC spectral region (405/520 nm); almost no hit is shown here | Potency, µM (titrated, usually from 57.5 µM), for the others: top-dose fluorescence increase, most hits filed as activators | hit rate 1.1% among 75,000 | AID 923, 2007; active = well fitted activation curve with a large enough effect; inconclusive = small, poorly fitted or top-dose-only effect;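 note: potency is the fitted concentration of half-maximal effect; 0% is about no effect; scaled to a free AFC standard on each plate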
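Compound autofluorescence profiled at 405 nm ex/520 nm em during kinetic caspase 1 run (50 nM enzyme, 5 uM Ac-WEHD-AFC, HEPES pH 7.5, 10 mM DTT). Titration up to 57 uM; baseline from regression intercept, normalized to AFC standard curve.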
Resorufin fluor: compound fluoresces in the resorufin spectral region; Compound fluorescence, resorufin region 547/598 nm, buffer; active compounds read high; max dye-equivalent concentration, M; hit rate 0.04% among 59,000; AID 588; active = above 10 nM dye equivalent; inconclusive = 1 to 10 nM; inactive = 1 nM or less; a few of its hits are not listed in these tables; note: highest value over a series up to 38 µM
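Dye-equivalent concentration values derive from comparing each well's 547/598 nm fluorescence against resorufin standards included on every plate. Incubation was 15 min at room temperature in 100 mM Tris, pH 8.0.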
A488 autofl: compound autofluorescence in A488 spectral region; hit rate 0.1% among 59,000; compound autofluorescence, A488 spectral region, dye equivalency; active compounds read high; max dye equivalency, M; active = above 10 nM dye equivalent; inconclusive = 1 to 10 nM; inactive = 1 nM or less; about half of its hits are not listed in these tables;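 note: highest value over a series up to 38 µM; compound alone in buffer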
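Compound autofluorescence was read in 100 mM Tris pH 8.0 after 15 min at room temperature, ex 480 nm/em 540 nm. Intensities were converted to A488 dye-equivalent concentration using an on-plate six-point A488 standard curve.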
A647 fluor: compound autofluorescence in A647 spectral region | Compound fluorescence, A647 channel (570/671 nm), Tris buffer | max dye-equivalent concentration, M | 59,000 tested, under 10 active; active means above 1 µM dye equivalent; inconclusive means 0.1 to 1 µM; inactive means 0.1 µM or less;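 note: values scaled relative to a standard on each plate; highest value over a series up to 38 µM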
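Fluorescence read (570 nm ex, 671 nm em) after 15 min RT incubation of compounds in 100 mM Tris buffer, pH 8.0; values expressed as dye-equivalent concentration against a six-point A647 standard series on each plate.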
An asterisk follows results filed as active; i = inactive; u = inconclusive; x = no result given; [ ] = another dose, or the depositor's remark. An excerpt. The share of hits here may be higher or lower than overall.

Structure	TSHR ag	AID923	Resorufin fluor	A488 autofl	A647 fluor
COc1ccc(CC2NCCC3(O)CCCCC23)cc1 (centres undefined)	7%	-2.2%	i	i	1.2e-08
CO[C@@H]1/C=C\O[C@@]2(C)Oc3c(C)c(O)c4c(c3C2=O)C(=N[C@H]2CC[C@H](O)O[C@@H]2C)C=C(NC(=O)/C(C)=C\C(=O)[C@@H]2C[C@@H]2[C@@H](O)[C@H](C)[C@@H](O)[C@H](C)[C@H](OC(C)=O)[C@@H]1C)C4=O	-6%[11.4 µM]	-2.1%[11.5 µM]	i	i	1e-08
CCOc1ccc(Br)cc1S(=O)(=O)Nc1ccccc1N1CCOCC1	u	-2.9%	i	i	2.7e-09
CCn1c(NCc2c[nH]c3ccccc23)nc2ccccc21	-8%	2.5%	i	i	1e-08
CN(C)c1ccc(C(c2ccc(N(C)C)cc2)c2ccc([N+](=O)[O-])cc2)cc1	u	-0.3%[11.5 µM]	i	i	1.2e-08
CCN(CC)CCn1c(=S)[nH]c2cc(Cl)ccc2c1=O	u	-1.7%	i	i	5.5e-09
CCOc1cc(C(=O)Nc2cc(=O)n(C)c(=O)n2C)cc(OCC)c1OCC	-6%[11.4 µM]	-2.1%	x	x	x
CCC(Sc1ccc2nnc(-c3ccc(OC)c(OC)c3)n2n1)C(=O)O (centres undefined)	7%[11.4 µM]	-0.8%	i	i	1e-09
CCC(c1c(C)[nH]oc1=O)c1c(C)[nH]oc1=O	-2%	-0.4%	i	i	1e-09
COc1ccc(OC)c(S(=O)(=O)Nc2ccccc2F)c1	4%	0.1%	i	i	1e-09
CCOc1cc(/C=N/NC(=O)c2cc(-c3cccc(OC)c3)n[nH]2)ccc1O	-9%	1.9%	x	x	x
CCC1Oc2ccccc2N(CC(=O)NCCCN2CCN(Cc3ccccc3)CC2)C1=O (centres undefined)	3%	-2.2%	i	i	3.3e-08
COC(=O)CSc1nc(-c2cccs2)ccc1C#N	x	x	i	i	3.9e-09
CCCC(=O)Nc1ccc(C(=O)NCC(=O)OCC)cc1	-7%	14%	i	i	1e-09
COc1ccc(S(=O)(=O)N2CCSC2c2ccccc2)cc1 (centres undefined)	x	0.7%	i	i	1.1e-08

Of the compounds above, these have an aryl thioether with sulfur outside any ring:
Structure	TSHR ag	AID923	Resorufin fluor	A488 autofl	A647 fluor
CCC(Sc1ccc2nnc(-c3ccc(OC)c(OC)c3)n2n1)C(=O)O (centres undefined)	7%[11.4 µM]	-0.8%	i	i	1e-09
COC(=O)CSc1nc(-c2cccs2)ccc1C#N	x	x	i	i	3.9e-09

(more compounds)
Structure	TSHR ag	AID923	Resorufin fluor	A488 autofl	A647 fluor
Cc1c(NS(=O)(=O)c2ccc3[nH]c(=O)[nH]c3c2)c(=O)n(-c2ccccc2)n1C	-2%	-1.8%	i	i	1e-09
COC(=O)c1ccc(Oc2cc(C)nc(SC)n2)cc1	u	4.1%	i	i	4.4e-09
COC(=O)C1ON2OC(C(=O)OC)C(C(=O)OC)C2C1CC(C)=O (centres undefined)	7%	-0.4%	i	i	9.5e-09
C=C(C)C1Cc2c(C)nn(-c3ccccc3)c2C1 (centres undefined)	u	0.0%	i	i	2.7e-08
CCN(CC(=O)NC1CCCCCC1)S(=O)(=O)c1ccccc1	3%	-1.1%	i	i	4.8e-09
CSCCC(NC(=O)c1c(C)oc2c1CCCC2)C(=O)O (centres undefined)	20%	6.6%	x	x	x
CCOC(=O)c1cnn(-c2nc3sc4c(c3c(=O)[nH]2)CCCC4)c1N	3%	0.8%	i	i	3.8e-08
Cc1ccc(S(=O)(=O)NC(=O)Nc2ncc3c(n2)CC(c2ccco2)CC3=O)cc1 (centres undefined)	x	x	i	i	2.4e-08
Cc1ccc2c(c1)c1cccc3c1n2CCN3CCC(N)=O	-29%	9.2%	x	x	x
O=C(Cn1c(-c2ccccn2)nc2ccccc21)NCCN1CCOCC1	14%	5.0%	i	i	1.3e-08
CCOc1ccc2nc(SCC(=O)N(C)C3CCS(=O)(=O)C3)[nH]c2c1 (centres undefined)	4%	0.2%	i	i	3.8e-09
COc1ccc(-n2nnc3c(SCc4ccccc4)ncnc32)cc1	14%	-1.1%	x	x	x
CCC(NS(=O)(=O)c1ccc(OC)cc1)C(=O)O (centres undefined)	14%	0.4%	i	i	2.4e-08
NC1=NC(c2ccc(Cl)cc2)n2c(nc3ccccc32)N1 (centres undefined)	4%	-1.4%	i	i	2.4e-08
C/C(NC(=O)c1ccccc1F)=C1\C(=O)C[C@@H]2[C@H]1C2(C)C	x	x	i	i	1.5e-09

Four structures already listed, sorted by formula weight, descending:
Structure	TSHR ag	AID923	Resorufin fluor	A488 autofl	A647 fluor
CCOc1ccc2nc(SCC(=O)N(C)C3CCS(=O)(=O)C3)[nH]c2c1 (centres undefined)	4%	0.2%	i	i	3.8e-09
CCOC(=O)c1cnn(-c2nc3sc4c(c3c(=O)[nH]2)CCCC4)c1N	3%	0.8%	i	i	3.8e-08
CCN(CC(=O)NC1CCCCCC1)S(=O)(=O)c1ccccc1	3%	-1.1%	i	i	4.8e-09
Cc1ccc2c(c1)c1cccc3c1n2CCN3CCC(N)=O	-29%	9.2%	x	x	x

The list goes on.
Structure	TSHR ag	AID923	Resorufin fluor	A488 autofl	A647 fluor
CCOC(=O)N1CCN(C(=O)Cn2ncc3c2-c2ccccc2OC3)CC1	-2%	1.1%	x	x	x
c1csc(CSc2nnc3sc4ccccc4n23)c1	x	-0.4%	i	i	4.2e-09
COc1ccc(Nc2nc3ccccc3c(=O)s2)c(OC)c1	2%	-1.3%	i	i	9.8e-09
COC(=O)c1ccc(C(NC(=O)OCc2ccccc2)/C(F)=C/[C@@H](C)C(=O)NCc2nc3ccccc3s2)cc1 (some centres undefined)	16%	3.6%	x	x	x
N#CCCCSc1nnc(-c2ccc(Cl)cc2)n1-c1ccccc1	u	-0.6%	x	x	x
COc1cccc(NC(=O)C2C3C=CC4(O3)C2C(=O)N(C2CC2)C4C(=O)NC2CCCCC2C)c1 (centres undefined)	13%	0.6%	i	i	4.2e-09
OC1(c2ccccc2)C/C(=N\n2cnnc2)C=C1c1ccccc1 (centres undefined)	6%	0.1%	i	i	2.3e-09
Cc1c(-c2ccc(O)cc2)nn(-c2ccc(O)cc2)c1-c1ccc(OCCN2CCCCC2)cc1	u	-3.0%	x	x	x
COc1ccc(S(=O)(=O)N(C)c2ccc(C(=O)N3CCC(C(N)=O)CC3)cc2)cc1	4%	-0.3%	i	i	2.8e-08
COCCOC(=O)c1c(C)n(C)c2ccc(OC(=O)c3cccs3)cc12	u	-1.2%	i	i	6.2e-09
CN1CCN(c2ccc(Cl)cc2NS(=O)(=O)c2ccccc2Cl)CC1	8%	-1.0%	i	i	1.1e-08
COC(=O)c1cc(NS(=O)(=O)c2ccc3c(c2)CCC(=O)N3)cc(C(=O)OC)c1	2%	3.8%	i	i	1e-09
COc1ccc(C2c3sc(=O)[nH]c3SC3C(=O)N(c4ccccc4)C(=O)C32)cc1 (centres undefined)	-19%	-2.4%	x	x	x
COCCn1nnnc1C(c1cc2cccc(C)c2[nH]c1=O)N1CCN(c2ccccc2F)CC1 (centres undefined)	5%	2.7%	i	i	1.1e-08
COC(=O)c1cc(OC)c(OC)cc1NC(=O)c1cnccn1	8%	1.2%	i	i	1e-09
Cn1c(=O)[nH]c(=O)c2c1nc(CN1CCN(c3cccc(Cl)c3)CC1)n2CCN1CCOCC1	-5%	1.3%	i	i	3e-09
CC(=O)c1cc2c(cc1NC(=O)CCc1ccccc1)OCO2	u	2.1%	i	i	2.2e-08
CC1S/C(=C(\C#N)C(N)=O)N(c2ccc(F)cc2)C1=O (centres undefined)	0%	2.7%	i	i	4.4e-09
CC1(C)CC(=O)C(C=NCCc2ccc(S(N)(=O)=O)cc2)=C(O)C1	-2%	0.8%	i	i	4.8e-08
COc1ccc(C2OC(=O)CC2C(=O)NC2CCCCCC2)cc1OC (centres undefined)	2%	0.3%	i	i	1e-09
CCCC1Cc2c(sc3nc(SC)nc(N)c23)CO1 (centres undefined)	x	x	i	i	1e-09
COc1cc(C(=O)NCc2ccco2)cc(OC)c1OC	6%	-0.3%	i	i	1e-09
COC(=O)c1ccccc1NC(=O)Cn1cnc2cc(C)c(C)cc21	u	-0.8%	x	x	x
C=CCn1c(SCC(=O)NC23CC4CC(CC(C4)C2)C3)nc(O)cc1=O	x	x	i	i	2.8e-08
CC(C)CN1CC2(CCN(C(=O)c3cccc(F)c3)CC2)C1	0%	4.0%	i	i	1e-09
O=C(NCc1ccco1)c1csc2c1CCCCC2	-2%[11.4 µM]	-0.4%	i	i	2.3e-08
CC1CC(C)CN(CCCNC(=O)C2CCN(S(=O)(=O)N3CCCCC3)CC2)C1 (centres undefined)	u	-1.2%	i	i	2.6e-08
C=CCC1(c2ccccc2)Oc2ccc(C)cc2-c2nc3cc(Cl)c(Cl)cc3nc21 (centres undefined)	-6%[11.4 µM]	1.6%[11.5 µM]	x	x	x
CC(C)C12CCC(C(=O)O)C(C1)C(=O)O2 (centres undefined)	u	1.8%	x	x	x
Cc1ccc2c(CC(=O)OC3CCOC3=O)coc2c1 (centres undefined)	u	0.2%	i	i	7.1e-09
O=C1C2CCCN2C(c2ccccc2)N1c1cccc(Cl)c1 (centres undefined)	3%	0.1%	x	x	x
CC1CC(C)CN(CC(C)(C)NS(=O)(=O)c2ccccc2)C1 (centres undefined)	8%	2.8%	i	i	2.6e-08
Cc1ccc(-n2ncc(C(=O)N3CCc4ccccc4C3)c2NC(=O)c2ccco2)cc1C	28%	-3.2%	i	i	1e-09
O=C(CN1CCN(c2ccc(Cl)cc2)CC1)Nc1ccc(F)cc1	5%	-0.1%	i	i	1.1e-09
CCc1cccc(C)c1N(C(=O)Cn1c(=O)[nH]c2ccccc21)C(C)COC (centres undefined)	x	x	i	i	1.1e-08
O=C(CN1CCN(CCOCCO)CC1)N1c2ccccc2Sc2ccc(Cl)cc21	2%[11.4 µM]	-3.0%	i	i	2.2e-08
Cc1noc(C)c1S(=O)(=O)Nc1ccc(C(=O)O)cc1	-46%[inhibitor]	-1.0%	i	i	1e-09
Cc1ccc(Nc2cc(C)nn2-c2nc(C)cc(=O)[nH]2)cc1	-4%	-0.6%	i	i	2.2e-09
COc1ccc(C2C(C(=O)N3CCCCC3)c3ccccc3C(=O)N2C)cc1 (centres undefined)	x	1.0%	i	i	1e-09
CCc1c(C)nc(N)n2c(SCC(=O)N3CCCC(C)C3)nnc12 (centres undefined)	-3%	1.4%	i	i	2.2e-09
O=C(CSc1nnc(-c2ccco2)n1-c1ccccc1)N1CCN(C(=O)c2ccco2)CC1	28%	0.0%	i	i	1e-09
CCn1ccc(C(=O)Oc2ccc(C(C)C)cc2)n1	0%	-2.4%	i	i	3.8e-08
CN1C(=O)c2oc3ccccc3c(=O)c2C1c1ccncc1 (centres undefined)	29%	0.8%	i	i	1e-09
CCN1C(=O)c2ccccc2Sc2ccc(C(=O)NCCN3CCOCC3)cc21	24%	3.1%	x	x	x
COC(=O)c1[nH]c2ccc(C)cc2c1NC(=O)C1=COCCO1	0%	1.1%	i	i	5e-08
Cc1cc(-c2csc(NC(=O)c3ccc(=O)n(C)n3)n2)c(C)n1CC1CCCO1 (centres undefined)	-11%	-1.3%	i	i	1e-09
